Cruzain noTriton: blocks cruzain activity in detergent-free assay; P25779; purified cruzain, Z-FR-AMC fluorescence, no detergent; Potency, µM, for inactives: max response, negative = inhibition, hits mostly inhibitors; actives 2.3% (n = 200,000); AID 1476; active = well fitted curve in the direction sought with a large enough effect; inconclusive = small, poorly fitted or top-dose-only effect, or another doubt; inactive = no such curve, though single readings can be large; an effect the other way counts as inactive or inconclusive;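 note: plate controls were enzyme without inhibitor for no effect and buffer without enzyme for full effect; nearly all actives have a fitted effect of over 40% in size; top concentration of the series not given in the record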
Target sequence (P25779 123-467 limits assumed): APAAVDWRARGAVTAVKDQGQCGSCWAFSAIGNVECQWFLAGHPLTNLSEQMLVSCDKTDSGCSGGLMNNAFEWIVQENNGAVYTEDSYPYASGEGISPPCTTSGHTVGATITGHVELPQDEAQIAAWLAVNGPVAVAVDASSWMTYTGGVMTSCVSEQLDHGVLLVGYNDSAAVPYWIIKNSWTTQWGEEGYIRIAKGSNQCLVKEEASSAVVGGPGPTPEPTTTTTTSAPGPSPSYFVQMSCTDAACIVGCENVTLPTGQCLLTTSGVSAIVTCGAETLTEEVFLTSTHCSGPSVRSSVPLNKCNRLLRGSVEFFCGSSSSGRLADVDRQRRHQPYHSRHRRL
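Purified cruzain at 1.5 nM, pre-incubated 15 min with compound at room temperature in 100 mM sodium acetate pH 5.5, 5 mM DTT, 0.00005% Triton X-100. Reaction started with 2 uM Z-FR-AMC; AMC fluorescence increase over 60 s gives rate.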
Lassa entry inh: blocks Lassa virus binding to or entry into cells. Lassa virus pseudotype entry inhibition, cell reporter; control for the full effect not named in the record. actives 1.2% (n = 300,000). Potency, µM (doses to about 37.9 µM), inactives show at the highest dose activity change, negative = inhibition, most hits filed as inhibitors. AID 540256; active means well fitted inhibition curve with a large enough effect; inconclusive means small, poorly fitted or top-dose-only effect, or effect the other way; inactive means flat fitted curve, though single readings scatter; tested in HEK293 cells; note: % is set by controls: 0 for no effect and ±100 for the full control effect; nearly all actives have a fitted effect of over 50% in size; luciferase read-out
Cruzain Triton: blocks cruzain activity in presence of Triton detergent; purified cruzain, Z-FR-AMC fluorescence, 0.01% Triton; actives 0.43% (n = 200,000); P25779; Potency, µM, inactives show max response, negative = inhibition, actives largely listed as inhibitors; active = well fitted curve in the direction sought with a large enough effect; inconclusive = small, poorly fitted or top-dose-only effect, or another doubt; inactive = no such curve, though single readings can be large; an effect the other way counts as inactive or inconclusive;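 note: plate controls were neutral wells for no effect and buffer without enzyme for full effect; nearly all actives have a fitted effect of over 40% in size; top concentration of the series not given in the record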
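Sodium acetate buffer (100 mM, pH 5.5) containing 5 mM DTT and 0.01% Triton X-100 hosted 1.5 nM cruzain and test compound for 15 min at room temperature. Cleavage of 2 uM Z-FR-AMC was then tracked by fluorescence.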
StopGo reporter: lowers the luciferase signal of an FMDV 2A StopGo reporter | actives 1.2% (n = 410,000) | Potency, µM (series often up to 57.9 µM), inactives show top-dose signal change, negative = less light | human cells with a luciferase reporter of 2A StopGo recoding; control for the full effect not named in the record; active = well fitted falling curve with a large enough effect; inconclusive = small, poorly fitted or top-dose-only effect; inactive = no such curve, though single readings can be large or run the other way; tested in HEK293T cells; note: % is set by controls: 0 for no effect and ±100 for the full control effect; nearly all actives have a fitted effect of over 45% in size; luciferase light after 4 h
Marburg entry inh: blocks Marburg virus binding to or entry into cells; Marburg virus pseudotyped entry inhibition, cell reporter; control for the full effect not named in the record; about a third of the inactives were read at about 46 µM; Potency, µM (series often up to 37.8 µM), without a hit: at the highest dose activity change, negative = inhibition, actives largely listed as inhibitors; actives 1.8% (n = 300,000); AID 540276; active = well fitted inhibition curve with a large enough effect; inconclusive = small, poorly fitted or top-dose-only effect, or effect the other way; inactive = flat fitted curve, though single readings scatter; tested in HEK293 cells; about a fifth of its hits are not listed in these tables; note: % is set by controls: 0 for no effect and ±100 for the full control effect; luciferase read-out
SARS PLpro yeast: blocks SARS-CoV papain-like protease in a yeast assay; S. cerevisiae expressing SARS-CoV PLpro, growth rescue; control for the full effect not named in the record; Potency, µM (top dose mostly 32.9 µM), inactives show top-dose activity, positive = growth rescue; actives 0.19% (n = 330,000); AID 485353; note: 0% is about no effect; nearly all actives have a fitted effect of over 55% in size; growth read by luminescence after 48 h
RE007 growth inh: less growth of the S. pombe RE007 Vpr strain | S. pombe RE007 Vpr strain, BacTiter-Glo ATP luminescence, 24 h; control for the full effect not named in the record | actives 0.21% (n = 360,000) | Potency, µM (top dose mostly 92.2 µM), inactives show top-dose activity change, negative = less growth; active = well fitted falling curve with a large enough effect; inconclusive = small, poorly fitted or top-dose-only effect; inactive = no such curve, though single readings can be large or run the other way;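 note: % is set by controls: 0 for no effect and ±100 for the full control effect; nearly all actives have a fitted effect of over 50% in size; the assay follows cell death caused by Vpr and the record does not say whether a fall means rescue or toxicity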
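Fission yeast RE007 carrying one integrated HIV-1 vpr copy, seeded at OD 0.01 in PMG+AL medium with 23 nL pinned compound. Grown 24 h at 30 degrees; viability read by BacTiter-Glo luminescence after 5 min.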
NS1 function inh: inhibitors of influenza NS1 protein function | S. cerevisiae slowed by influenza A NS1, growth recovery by OD600 | Potency, µM (series often up to 46.1 µM), without a hit: at the top dose activity, positive = more growth | actives 0.4% (n = 270,000); note: actives are rising curves; nearly all actives have a fitted effect of over 50% in size
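In this qHTS, NS1 from influenza A is expressed in budding yeast, where it slows growth. Cells are switched from glucose to 2% galactose medium (pH 6.0, -URA), treated with compound, and growth recovery is read at OD600.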
Starred values were filed as active, the others as inactive; u = inconclusive; x = not tested or not shown; & = joins results of further samples; [ ] = another dose, or the depositor's remark. Unless noted, calls come from the whole dose curve; as a rule, active means well fitted rising curve with a large enough effect; inconclusive means small, poorly fitted or top-dose-only effect; inactive means no such curve, though single readings can be large or run the other way. Potency is the fitted concentration of half-maximal effect.

SMILES	Cruzain noTriton	Lassa entry inh	Cruzain Triton	StopGo reporter	Marburg entry inh	SARS PLpro yeast	RE007 growth inh	NS1 function inh
O=C(NCC(c1cccs1)N1CCOCC1)c1cn(-c2ccccc2)nc1-c1ccc(Cl)cc1 (stereo not given)	x	-25%	x	-3%	10µM*	3%	3%	x
CCc1nnc(SCc2nc(-c3ccc(OC)c(OC)c3)oc2C)c2cc3sc(C)cc3n12	-5%	29%[46.1 µM]	-8.4%	-5%	x	x	x	x
CC(=O)C1=C(O)C(=O)N(c2cc(C(C)(C)C)on2)C1c1ccc(C(C)C)cc1 (stereo not given)	u	-10%	-12%	10%	3%	-3%	8%	u
COc1ccc(C2=NS(=O)(=O)N(C)C(C(=O)N3CCCCC3)=C2)cc1OC	x	x	x	-20%	x	-3%	-7%	5%
Cc1cccc(NC(=O)C2CC(O)CN2C(=O)OCc2ccccc2)c1 (stereo not given)	6%	-6%	1.8%	-6%	5%	-6%	-6%	4%
CSc1nc2nc3c(cc2c(=O)n1-c1ccc(C)cc1)COC(C)(C)C3	x	x	x	u	x	1%	11%	-2%
Cc1ccc(C2CCN(C(=O)Nc3ccc(Cl)c(Cl)c3)C2)cc1 (stereo not given)	-12%	-4%[46.1 µM]	-4.1%	28%	x	x	x	x
CCCSc1nc2c(c(=O)n(C)c(=O)n2C)n1Cc1ccc(C)cc1	7%	u	-4.0%	u	u	2%	12%	-70%
C=CCN(CC=C)CCCOc1ccc(Br)cc1Cl	x	-19%	x	0%	u	1%	-14%	7%
O=C(COC(=O)c1ccc(O)cc1O)c1ccc(Cl)cc1	x	-17%	x	13%	4%[46.1 µM]	3%	28%	x
Cn1c(=O)oc2cc(S(=O)(=O)N3CCCC(C(=O)N4CC=C(c5ccccc5)CC4)C3)ccc21 (stereo not given)	3%	x	-4.5%	x	-3%	4%	x	10µM*
Cc1nc2cc(NC(=O)NC(C)(C)C)ccc2n1C	x	x	x	57%[activator]	x	0%	6%	-3%
COc1ccc(NS(=O)(=O)c2ccc(O)c(NC(=O)c3ccc(S(=O)(=O)N4CCCCCC4)cc3)c2)cc1	-19%	-4%	-4.4%	0%	u	15%	15%	16%
Cn1cccc1Cc1nnc(SCC(=O)N2CCc3ccccc32)n1CCc1ccccc1	u	x	-14%	-21%	3%	1%	-12%	1%
CCn1c(SCC(=O)C(C)(C)C)nnc1-c1ccccn1	14%	17%	8.2%	18%	7%	-1%	-8%	-2%
CCS(=O)(=O)N1CCN(S(=O)(=O)c2ccccc2[N+](=O)[O-])CC1	x	27%[46.1 µM]	x	-6%	u	1%	8%	6%
O=C(Cn1nnnc1-c1ccccc1F)Nc1ccc(OC(F)(F)F)cc1	-29%	-13%[46.1 µM]	-5.8%	8%	-2%[46.1 µM]	x	x	x
CCN(CC)S(=O)(=O)c1ccc(C)c(NC(=O)CNc2cccc(S(=O)(=O)N3CCOCC3)c2)c1	x	-10%	x	-27%	0%[46.1 µM]	-3%	11%	x
CCOC(=O)c1nnn(-c2ccccc2)c1C	-1%	u	-0.1%	0%	0%	-14%	2%	-3%
COCC(=O)N/N=C(\C)CC(=O)Nc1ccccc1C(N)=O	5%	22%	-0.5%	-13%	u	0%	17%	19%
COCCCNC(=S)N1CCN(Cc2ccc3c(c2)OCO3)CC1	x	x	x	-18%	x	1%	-8%	4%
COc1ccc(CNC(=O)CCCn2nc(C)c([N+](=O)[O-])c2C)cc1OC	x	2%	x	-6%	6%[46.1 µM]	6%	-1%	x
COc1ccc(-c2noc(-c3ccccc3C(=O)Nc3cccnc3)n2)cc1OC	u	-7%	2.3%	x	-5%	0%	-9%	-33%
O=[N+]([O-])c1ccc(N2CCCC2)c2ncccc12	x	0%[46.1 µM]	x	-11%	3%[46.1 µM]	-2%	-2%	x
CCNc1nc(-c2cc3ccccc3o2)cs1	-19%	u	-8.8%	-6%	u	-4%	-23%	12%
Cc1cc(=O)oc2cc(NC(=O)C3CCCC3)ccc12	x	15%[46.1 µM]	x	33%[activator]	u	0%	1%	x
COc1ccc(C)cc1NC(=O)c1cc2ccccc2cc1OCC(=O)NCc1ccco1	16%	2%	-10%	-22%	-8%	3.5µM*	-4%	u
Cc1ccc2[nH]c(CNC(=O)c3ccccc3F)cc2c1	x	u	x	32%[activator]	u	-1%	0%	u
COc1cccc(Nc2nnc(SCC(=O)N3CC(=O)Nc4ccccc43)s2)c1	x	x	x	-5%	x	-4%	-8%	-5%
CC1Cc2cc(S(=O)(=O)N3CCCCC3)ccc2N1C(=O)C1CCC1 (stereo not given)	x	x	x	-25%	x	2%	1%	-3%
CC1(C)Cc2c(c(N3CCCC3)nc3sc(C(=O)Nc4ccccc4)c(N)c23)CO1	x	x	x	41%[activator]	x	-4%	-4%	23%
COc1cc(NS(C)(=O)=O)c(OC)cc1NC(=O)c1cccc(F)c1	4%	-21%	-0.8%	18%	-2%	-7%	16%	-10%
O=C(COC(=O)CCc1nc2ccccc2c(=O)[nH]1)Nc1c(Cl)cccc1C(F)(F)F	x	1%	x	11%	20%	x	-6%	x
COc1ccccc1CNC(=O)CNCCc1ccc(OC)c(OC)c1	x	x	x	-3%	x	0%	-10%	3%
Cc1nnc(NC(=O)CSc2nnc(CNC(=O)C34CC5CC(CC(C5)C3)C4)n2C2CCCCC2)s1	u	x	-20%	-16%	1%	2%	-4%	3%
Cc1ccc(NCc2nnc(SCC(=O)NNC(=O)Cc3ccccc3)n2C)cc1	x	x	x	-7%	x	0%	6%	u
CCC(CC)C(=O)Nc1cc(OC)c(OC)cc1C(=O)O	-2%	-12%	-0.2%	-16%	5%	-2%	0%	15%
COc1ccc(C)cc1NS(=O)(=O)c1c(C(=O)N2CCC(C)CC2)c(C)n(C)c1C	28%	2%[46.1 µM]	-1.0%	39%[activator]	x	x	x	x
Cc1ccc2c(c1)C1CN(C)CCC1N2S(=O)(=O)c1cccc(F)c1 (stereo not given)	x	4%	x	-6%	u	2%	8%	x
CCCN(CCC)C(=O)c1cc2c(=O)n3cccc(C)c3nc2n1C	-6%	15%[46.1 µM]	-1.2%	-13%	x	x	x	x
O=C(O)CC1S/C(=N/N=C/c2ccc(Br)cc2)N(c2ccccc2)C1=O (stereo not given)	x	-9%	x	-8%	-1%[46.1 µM]	1%	-8%	x
Cc1cccc(OCc2nc(-c3nonc3N)no2)c1C	-18%	1%	2.0%	23%	u	-9%	10%	-6%
CCOc1ccc(OCCOC(=O)CN2C(=O)NC3(CCCC3)C2=O)cc1	x	-18%	x	-18%	18%	-2%	-4%	x
CC1(c2ccccc2)NC(=O)N(CC(=O)Nc2ccc(C(N)=O)cc2)C1=O (stereo not given)	x	9%[46.1 µM]	x	-20%	29%[46.1 µM]	-2%	-2%	-18%
CN(CC(=O)Nc1ccc(F)c(F)c1F)C(=O)c1cc(-c2ccncc2)nc2ccccc12	x	3%	x	-15%	u	4%	11%	x
CCOc1ccc(C(C)=O)cc1CSc1nc2nc(C)cc(C)n2n1	x	-9%	x	16%	-12%[46.1 µM]	0%	1%	-2%
O=C(OCn1nnc2ccccc2c1=O)c1ccc(N2CCOCC2)c([N+](=O)[O-])c1	u	5%	-7.4%	-8%	u	-21%	-8%	31%
Cc1sc2nc(CSc3cccc(C(F)(F)F)c3)[nH]c(=O)c2c1C	25µM*	u	-2.8%	-6%	-1%	-9%	16%	5%
CC(OC(=O)C1=Cc2ccccc2OC1)C(=O)NC(C)(C)C (stereo not given)	x	x	x	-17%	x	1%	8%	6%
COc1ccc(NC(=O)CN2CCC(C)CC2)c([N+](=O)[O-])c1	-14%	-5%	-0.6%	x	6%	1%	8%	2%
NC(=NCCc1ccc(Cl)cc1)NS(=O)(=O)c1ccccc1	x	x	x	1%	x	u	7%	4%
Cn1cccc1/C=N\NC(=O)c1cncc(Br)c1	x	11%	x	22%	u	0%	-11%	-3%
CC(=O)N1c2ccccc2CCc2ccc(N)cc21	x	1%	x	-13%	u	1%	-3%	12%
O=C(Nc1ccc2snnc2c1)N1CCN(c2ccccc2)CC1	-15%	-16%	-5.7%	u	-27%&-27%	-5%	-3%	-64%
COc1ccc(NC(=O)Nc2ccccc2C(N)=O)cc1OC	-12%	-12%[14.3 µM]	4.5%	55%[activator]	3%	x	6%	u
O=C(Nc1ccccc1)/C(=C/c1cccnc1)NC(=O)c1ccco1	-6%	9%	-4.6%	-14%	3%	17%	9%	-3%
COc1cccc(CNc2nc3ccccc3n2CCN2CCCCC2)c1OC	-12%	u	0.3%	-23%	11µM*	0%	6%	-4%
CCc1ccc(CN(C)C(=O)CC2C(=O)NCCN2Cc2ccoc2)cc1 (stereo not given)	x	x	x	-10%	x	-1%	7%	1%
CN(C)c1ccc(C(=S)N2CCN(Cc3ccccc3)CC2)cc1	x	x	x	-7%	x	0%	10%	-2%
Cc1cc(C(=O)OCC(=O)NCc2ccco2)c(C)n1-c1ccccc1	-6%	u	-8.5%	0%	u	0%	-5%	-42%

The listing continues:
SMILES	Cruzain noTriton	Lassa entry inh	Cruzain Triton	StopGo reporter	Marburg entry inh	SARS PLpro yeast	RE007 growth inh	NS1 function inh
Cc1nn(CC(=O)NNC(=O)c2cccc(Br)c2)c(C)c1[N+](=O)[O-]	x	14%	x	-5%	6%	0%	-4%	4%
Cc1ccc(NC(=O)c2cccc(F)c2)cc1S(=O)(=O)N1CCCCCC1	x	u	x	3%	-18%[46.1 µM]	-2%	7%	x
Cc1ccc(S(=O)(=O)CC(=O)N2CCN(c3cccc(C(F)(F)F)c3)CC2)cc1	x	3%	x	-23%	-13%	-7%	-8%	1%
Cc1ccccc1Nc1nc(-c2cccc(Cl)c2)c2c(n1)-c1ccccc1OC2	21%	2%[46.1 µM]	-3.1%	-13%	8%[46.1 µM]	x	x	x
COCCN(C(=O)COC(=O)/C=C/c1cccs1)c1c(N)n(Cc2ccccc2)c(=O)[nH]c1=O	x	0%	x	-23%	0%	-1%	-20%	x

Assay outcomes from PubChem BioAssay.
